Compound activity: PubChem BioAssay, ICCB-Longwood Screening Facility, Harvard Medical School
PV pol inh: poliovirus RdRp elongation inhibitors, primary screen, biochemical, fluorescence polarization, total intensity; Genome polyprotein (Poliovirus type 1 (strain Mahoney)), P03300; poliovirus polymerase elongation; stronger effect = lower value; % elongation, % (compound at 16.7 µg/mL); 150,000 compounds, 0.66% hits; AID 588519, 2011; in the data active = % elongation below about 90%; note: some results filed as inactive read as strong as hits
Target sequence (P03300 1749-2209 limits assumed): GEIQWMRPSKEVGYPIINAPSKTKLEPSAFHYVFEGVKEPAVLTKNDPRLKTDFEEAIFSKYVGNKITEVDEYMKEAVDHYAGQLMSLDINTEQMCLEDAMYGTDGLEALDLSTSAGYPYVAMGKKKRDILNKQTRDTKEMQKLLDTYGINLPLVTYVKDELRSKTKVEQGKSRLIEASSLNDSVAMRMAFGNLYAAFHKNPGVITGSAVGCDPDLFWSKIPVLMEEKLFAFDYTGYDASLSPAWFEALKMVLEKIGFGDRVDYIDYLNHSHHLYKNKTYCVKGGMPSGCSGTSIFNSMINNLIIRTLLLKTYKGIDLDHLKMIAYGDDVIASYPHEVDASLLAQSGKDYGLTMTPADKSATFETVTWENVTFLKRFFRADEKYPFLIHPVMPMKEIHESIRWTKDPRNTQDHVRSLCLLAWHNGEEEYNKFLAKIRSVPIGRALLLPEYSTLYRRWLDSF
PV pol inh intensity: second read-out of PV pol inh, no call of its own (marks repeat the call); % elongation; measured here: total intensity read-out; formula for this scale not given here;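 total fluorescence in place of polarization; lower means less elongation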
* = called active by the depositor.

SMILES | PV pol inh | PV pol inh intensity
CC(C)c1ccc(CNc2nc(-c3ccco3)nn2S(=O)(=O)c2ccccc2)cc1 | 111 | 113
COC(=O)c1sccc1S(=O)(=O)N1CCN(c2ccc(C(C)=O)cc2)CC1 | 99 | 101
Cc1ccc(OCCSc2nc3ccccc3n2CC(=O)NC(C)C)cc1 | 111 | 109
COc1cccc(C(=O)Nc2ccc(-c3nc4ccc(C)cc4s3)cc2)c1OC | 109 | 113
Cc1cc(C(=O)Nc2ccc(-n3c(C)nc4ccccc4c3=O)cc2)ccc1[N+](=O)[O-] | 108 | 101
Cn1c(=O)c2nc(SCC(=O)Nc3cc(Cl)cc(Cl)c3)n(C)c2n(C)c1=O | 105 | 96
Cc1ccccc1Nc1c(-c2ccc(Cl)s2)nc2c(C)cccn12 | 103 | 107
CCOC(=O)c1ccc2c(c1)N(Cc1cc(C)ccc1C)C(=O)c1ccccc1S2(=O)=O | 113 | 114
CCc1ccc(NC(=O)Cn2c(=O)c3cccn3c3ccccc32)cc1 | 105 | 107
CCc1ccccc1Nc1cc(C(=O)NC2CCC(C)CC2)c2ccccc2n1 (centres undefined) | 110 | 112
COC(=O)c1ccc(C2c3c(-c4ccccc4O)n[nH]c3C(=O)N2Cc2ccncc2)cc1 (centres undefined) | 104 | 107
COc1cc(NC(=O)C2CCCN(S(=O)(=O)c3ccc4c(c3)CCCC(=O)N4)C2)cc(OC)c1 (centres undefined) | 113 | 117
CCOC(=O)c1nc(Nc2ccccc2OC)c2ccccc2n1 | 105 | 103
COc1ccc(NC(=O)CCc2nc3c(C)nn(-c4ccc(C)cc4)c3n(C)c2=O)cc1 | 106 | 108
Cc1cc2oc(C(=O)Nc3ccc(S(N)(=O)=O)cc3)cc(=O)c2cc1C | 110 | 113
COc1ccc(NC(=O)C2CCN(S(=O)(=O)c3ccc4c(c3)CCCC(=O)N4)CC2)cc1OC | 114 | 109
CC(CNC(=O)c1cc(-c2ccccc2)n[nH]1)c1ccccc1 (centres undefined) | 109 | 112
CCCCc1nn2c(=O)cc(COC(=O)c3cccc(NC(=O)c4cccc(C)c4)c3)nc2s1 | 107 | 113
COc1ccc(-c2cc3c(=O)n(CC(=O)Nc4cc(F)ccc4F)ccn3n2)cc1OC | 101 | 103
CCCc1cnc2c(c1SCc1cccc(C)c1)c(=O)n(C)c(=O)n2C | 108 | 109
Cc1ccc(Cn2c(=O)n(CCc3ccc(Cl)cc3)c(=O)c3ccccc32)cc1 | 105 | 106
CC1CCCCN1C(=O)c1ccc2c(c1)N(Cc1ccc(Cl)cc1)C(=O)c1ccccc1S2=O (centres undefined) | 107 | 103
O=C(NC1CCCC1)c1ccc(CSc2nc3ccncc3n2Cc2ccc(F)cc2)cc1 | 107 | 109
CSc1ncc(C(=O)Nc2cc(C)cc(C)c2)c(-c2ccccc2)n1 | 102 | 105
COc1ccc(NC(=O)C2=C(C)Nc3nc(SCc4ccccc4)nn3C2c2cc(OC)ccc2OC)cc1 (centres undefined) | 110 | 114

Reprinted at random: 3 entries already listed.
SMILES | PV pol inh | PV pol inh intensity
Cc1cc(C(=O)Nc2ccc(-n3c(C)nc4ccccc4c3=O)cc2)ccc1[N+](=O)[O-] | 108 | 101
CCCc1cnc2c(c1SCc1cccc(C)c1)c(=O)n(C)c(=O)n2C | 108 | 109
Cc1ccc(Cn2c(=O)n(CCc3ccc(Cl)cc3)c(=O)c3ccccc32)cc1 | 105 | 106

Further entries.
SMILES | PV pol inh | PV pol inh intensity
CCc1ccc(S(=O)(=O)c2nnn3c2nc(NCCc2ccccc2)c2sccc23)cc1 | 105 | 113
CCc1ccc(CNC(=O)c2ccc3c(c2)c(C)c(C)n3Cc2ccccc2)cc1 | 105 | 109
CCOC(=O)N1CCN(Cc2nc3cc(NC(=O)c4ccccc4OC)ccc3n2C(C)C)CC1 | 107 | 101
COc1cc(NC(=O)N2CCC(CN3CCCC3)CC2)cc(OC)c1OC | 111 | 113
CCOC(=O)N1CCc2c(sc3c2c(=O)n(-c2ccc(CC)cc2)c(=O)n3Cc2cc(C)ccc2C)C1 | 103 | 107
CC1CCCN(C(=O)Cn2c(=O)n(CC3CCC(C(=O)NC(C)C)CC3)c(=O)c3sccc32)C1 (centres undefined) | 122 | 122
Cc1ccc(Cl)cc1NC(=O)Cn1c(=O)n(CCCS(=O)(=O)C2CCCCC2)c(=O)c2ccccc21 | 105 | 106
COc1ccc(-n2c3c(cc(-c4nc(-c5ccc(Cl)cc5)cs4)c2=O)C(=O)CC(C)(C)C3)cc1 | 107 | 104
COc1ccc(Cl)c2sc(NC(=O)c3ccc(S(=O)(=O)N4CCCC4)cc3)nc12 | 109 | 114
COc1ccccc1N1CCN(Cc2nc(-c3cc(OC)c(OC)c(OC)c3)no2)CC1 | 101 | 99
Cc1ccc(N2CC(C(=O)NCCS(=O)(=O)N3CCN(c4ccccc4F)CC3)CC2=O)cc1 (centres undefined) | 112 | 107
Cc1[nH]c(=O)[nH]c(=O)c1S(=O)(=O)N1CCN(c2cccc(Cl)c2)CC1 | 97 | 105
COc1ccccc1NC(=O)CSC1=Nc2ccccc2C2=NC(CC(=O)NCc3cccs3)C(=O)N12 (centres undefined) | 113 | 110
CCN(CC)c1ccc(-c2nc(-c3ccccc3C)no2)cc1[N+](=O)[O-] | 108 | 107
COC(=O)c1sccc1S(=O)(=O)N(CC(=O)NCc1ccc(F)cc1)c1ccccc1 | 99 | 106
O=C(CSc1oc(-c2ccccc2)nc1S(=O)(=O)c1ccc(Cl)cc1)Nc1ccc(F)cc1 | 105 | 100
CCOc1cc(-c2ccc(OC(=O)c3ccccc3)c(OC)c2)cc(=O)c2c(C)oc(C)c12 | 122 | 124
Cc1oc(-c2ccc(C(=O)NCc3cccc(F)c3)cc2)nc1COc1ccccc1 | 110 | 111
COc1cccc(N2CCN(C(=O)c3ccc(C)c(NC(=O)c4nsc5ccccc45)c3)CC2)c1 | 104 | 109
COc1ccc(S(=O)(=O)N2CCC(c3nnnn3-c3ccccc3)CC2)cc1OC | 102 | 104
Cc1ccc(-c2nc(CS(=O)(=O)CC(=O)N3CCN(c4cccc(C)c4C)CC3)c(C)o2)cc1 | 108 | 100
COc1ccc(Cl)cc1NC(=O)CCn1c(=O)oc2ccccc21 | 104 | 111
Cc1ccc(C)c(NC(=O)C2CCN(c3nn4c(=O)cc(C)nc4s3)CC2)c1 | 111 | 113
Cc1oc(-c2ccccc2F)nc1CSCC(=O)NCc1ccccc1 | 110 | 107
COc1ccc(NC(=O)CN2C(=O)C3(SCC(=O)N3c3ccccc3)c3ccccc32)cc1Cl (centres undefined) | 105 | 102

Single records, as listed above:
CCOC(=O)N1CCc2c(sc3c2c(=O)n(-c2ccc(CC)cc2)c(=O)n3Cc2cc(C)ccc2C)C1 is listed as PV pol inh = 103; PV pol inh intensity = 107
Cc1[nH]c(=O)[nH]c(=O)c1S(=O)(=O)N1CCN(c2cccc(Cl)c2)CC1 is listed as PV pol inh = 97; PV pol inh intensity = 105
Cc1oc(-c2ccc(C(=O)NCc3cccc(F)c3)cc2)nc1COc1ccccc1 is listed as PV pol inh = 110; PV pol inh intensity = 111

New compounds follow.
SMILES | PV pol inh | PV pol inh intensity
CCOc1ccc(Nc2sc(C(=O)c3ccc(F)cc3)c(N)c2S(=O)(=O)c2ccc(C)cc2)cc1 | 105 | 111
CCCCOC(=O)c1ccc(NC(=O)CSc2nc3c(c(=O)[nH]2)CCC3)cc1 | 111 | 111
CC(C)c1nn2c(=O)cc(COC(=O)c3cccc(NC(=O)c4ccccc4F)c3)nc2s1 | 103 | 106
COc1ccc(OC)c(CCNC(=O)c2c(C)oc3ncn(CC(C)C)c(=O)c23)c1 | 112 | 112
CCN(c1ccccc1)S(=O)(=O)c1ccc(NC(=O)c2nc(S(C)(=O)=O)ncc2Cl)cc1 | 114 | 113
COCCCN1C(=O)c2[nH]nc(-c3cc(C)ccc3O)c2C1c1ccc(F)cc1 (centres undefined) | 114 | 112
CCOC(=O)c1cccc(NC(=O)c2cc(CN3CCOCC3)on2)c1 | 111 | 116
CCOC(=O)c1c(N)n(-c2cccc(OC)c2)c2nc3ccccc3nc12 | 122 | 132
CCOc1ccc(-n2c(=O)c3c(C)c(C)sc3n(CC(=O)C(C)(C)C)c2=O)cc1 | 108 | 106
CCOc1ccc(-c2cc3c(=O)n(CC(=O)NCc4ccc(OC)cc4)ccn3n2)cc1 | 109 | 110
Cc1ccc(C)c(N2CCN(C(=O)CCn3c(=O)c4cccn4c4cccnc43)CC2)c1 | 107 | 106
CCC(=O)N1CCc2cc(Br)cc(S(=O)(=O)CCC(=O)N3CCN(c4ccc(F)cc4)CC3)c21 | 108 | 106
Cc1ccc(Cn2cnc3nc4c(cc3c2=O)CCCC4)cc1 | 107 | 107
COc1cn(CC(=O)Nc2ccc(C)cc2)c(CN2CCCCC2)cc1=O | 114 | 112
COc1ccc(CNC(=O)c2cc3c(=O)n(C)c4ccccc4c3n2C)cc1 | 109 | 114
COc1ccc2cc(CNc3ccc(C)cc3)c(=O)n(CC(=O)Nc3ccc(OC)c(Cl)c3)c2c1 | 107 | 102
CCN(CC)CCNC(=O)c1c(C)oc2ncn(C)c(=O)c12 | 110 | 108
COCCNC(=O)CSc1nnc(NC(=O)Nc2ccc(C)cc2)s1 | 110 | 108
CC(C)(C)c1ccc(C(=O)NNc2ncnc3c2cnn3-c2ccc(Cl)cc2)cc1 | 110 | 112
CC1CCN(S(=O)(=O)c2ccc3[nH]ccc3c2)CC1 | 104 | 108
CCOc1ccc(/C=C/c2nc(C#N)c(Nc3ccc(OC)cc3)o2)cc1 | 111 | 115
COc1ccc(NC(=O)Cn2c(=O)n(Cc3ccco3)c(=O)c3sc4ccccc4c32)cc1Cl | 101 | 110
COc1ccc(-n2ccnc(NCCc3ccc(S(N)(=O)=O)cc3)c2=O)cc1Cl | 103 | 111
Cc1ccccc1OCC(=O)Nc1nnc(SCc2cc(=O)n3cc(Cl)ccc3n2)s1 | 107 | 107
COc1ccc(Cn2ccc3nc(C)c(C(=O)NCc4ccc(F)cc4)cc3c2=O)cc1 | 107 | 112

Entries above that have a furan ring, fused or not (five):
SMILES | PV pol inh | PV pol inh intensity
CC(C)c1ccc(CNc2nc(-c3ccco3)nn2S(=O)(=O)c2ccccc2)cc1 | 111 | 113
CCOc1cc(-c2ccc(OC(=O)c3ccccc3)c(OC)c2)cc(=O)c2c(C)oc(C)c12 | 122 | 124
COc1ccc(OC)c(CCNC(=O)c2c(C)oc3ncn(CC(C)C)c(=O)c23)c1 | 112 | 112
CCN(CC)CCNC(=O)c1c(C)oc2ncn(C)c(=O)c12 | 110 | 108
COc1ccc(NC(=O)Cn2c(=O)n(Cc3ccco3)c(=O)c3sc4ccccc4c32)cc1Cl | 101 | 110

Next part
SMILES | PV pol inh | PV pol inh intensity
COC(=O)c1ccccc1NC(=O)c1noc2c1CSc1ccccc1-2 | 107 | 105
COc1ccc(-c2c(C)c3ccc(O)c(CN4CCCC(C)C4)c3oc2=O)cc1OC (centres undefined) | 97 | 103
CCOC(=O)c1[nH]c(C)c(C(=O)NCc2ccccc2Cl)c1C | 112 | 97
CCOc1ccc(NC(=O)c2nn(C)c3c2CS(=O)(=O)c2ccccc2-3)cc1 | 105 | 107
CC(=O)Nc1ccc(S(=O)(=O)NC2(C(F)(F)F)NC(=O)N(CCc3ccc(F)cc3)C2=O)cc1 (centres undefined) | 108 | 102
Cc1ccc(N2C(=O)CC(c3ccccc3F)C3=C2COC3=O)cc1Cl (centres undefined) | 105 | 108
CN1CCc2nc3sc(C(=O)Nc4cccc(C#N)c4)c(N)c3cc2C1 | 103 | 101
Cc1ccc(Cl)cc1NC(=O)c1oc2ccc(S(=O)(=O)N(C)C3CCCCC3)cc2c1C | 111 | 111
CCOC(=O)c1cccc(NC(=O)CCn2nc(C)c3c(C)n(-c4ccccc4)nc3c2=O)c1 | 107 | 110
Cc1ccc2c(CNCC(C)c3ccccc3)c(C(=O)O)n(Cc3ccccc3C)c2c1 (centres undefined) | 101 | 110
CCOC(=O)c1ccc(N2C(=O)c3n[nH]c(C)c3C2c2cccc(Br)c2)cc1 (centres undefined) | 105 | 104
Cc1ccc(N2CC(c3nnc(NC(=O)c4ccco4)s3)CC2=O)cc1Cl (centres undefined) | 108 | 107
O=c1[nH]c(C2CCCN(S(=O)(=O)c3ccccc3)C2)nc2c1nnn2Cc1ccc(OC(F)(F)F)cc1 (centres undefined) | 108 | 110
CCOc1ccc2oc(=O)cc(CN3CCN(c4ccccc4)CC3)c2c1 | 102 | 103
COc1ccc(Cn2c(=O)c3oc4ccccc4c3n(Cc3ccccc3)c2=O)cc1 | 107 | 102
Cc1ccccc1OCC(=O)NCC(c1ccc(Cl)cc1)N1CCOCC1 (centres undefined) | 103 | 106
Cc1cc(SCC(=O)Nc2ccc(Cl)cc2)nc2ccccc12 | 109 | 108
O=C(Nc1cccc(Cl)c1)C1CCCN(c2nn3cc(-c4ccc(F)cc4)nc3s2)C1 (centres undefined) | 107 | 105
O=C(c1ccc2c(c1)N(Cc1cccc(Cl)c1)C(=O)c1ccccc1S2(=O)=O)N1CCN(c2cccc(C(F)(F)F)c2)CC1 | 105 | 108
CCOc1ccc(NC(=O)C2CCCN(c3nn4cc(-c5ccc(OC)cc5)nc4s3)C2)cc1 (centres undefined) | 109 | 93
Cc1ccc(Cl)cc1NC(=O)CN(C)S(=O)(=O)c1ccc2c(c1)n(C)c(=O)c(=O)n2C | 100 | 102
COCCNC(=O)c1[nH]c2cc(C)ccc2c1Sc1ccc(Cl)cc1 | 111 | 115
COc1ccc(C(=O)Nc2nnc(S(=O)(=O)N(CC(C)C)c3ccccc3)s2)cc1 | 110 | 107
Cc1ccc2nc(N(Cc3cccnc3)C(=O)CCOc3ccccc3)sc2c1 | 109 | 103
Cc1ccc(Nc2c(-c3ccncc3)nc3ccc(C)cn23)cc1 | 110 | 114
CCc1ccc(-n2nc(C)c3c(C)cc(=O)n(CC(=O)Nc4ccc(C)c(F)c4)c32)cc1 | 109 | 99
CCOC(=O)c1cccc(NC(=O)Cn2cnc3nc4c(cc3c2=O)CCCC4)c1 | 105 | 111

This is a subset, so the mix of outcomes need not match the whole.
